Sfp inh: Sfp phosphopantetheinyl transferase inhibition; Q9F4F7; Biochemical Sfp PPTase activity, qHTS; Potency, µM, without a hit: max response, negative = inhibition, hits mostly inhibitors; actives 3.5% (n = 310,000); AID 1490; active = well fitted inhibition curve with a large enough effect; inconclusive = small, poorly fitted or top-dose-only effect, or another doubt; inactive = no such curve, though single readings can be large or run the other way;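 also: the enzyme is Sfp with the accession as filed and its product quenches rhodamine fluorescence; potency is read from the fitted curve at half-maximal effect; 0% = enzyme reaction without inhibitor and -100% = no enzyme wells; top concentration of the series not given in the record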
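After 15 min at room temperature with compound, 15 nM Sfp received 5 uM rhodamine-CoA plus 12.5 uM BHQ-2-ybbR (50 mM Hepes pH 7.6, 10 mM MgCl2). Rate came from the fluorescence difference over 30 min, ex 525/em 598 nm.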
Menin MLL FP FL: menin-MLL binding inhibition, fluorescein peptide; Fluorescence polarization, fluorescein-MLL peptide displacement from menin; FP activity change, % at 61.4 µM; 290,000 tested, under 10 active; AID 1766; inconclusive = falling polarisation curve, or a change in total fluorescence; inactive = total fluorescence flat and polarisation flat or rising; no compound was filed as active; the % refers to the polarisation; negative = inhibition;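 also: % of control where 0% means no effect; inhibitors lower the polarisation; unlabelled MLL peptide was the positive control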
Numbers without * were called inactive; ? = inconclusive; & = joins results of further samples; [ ] = dose if it differs, or a comment. This is a subset (hit frequency here may not be typical).

Sfp inh	Menin MLL FP FL	SMILES
18%	-3.9[11.7 µM]	COc1ccc(NC(=O)N2CCc3nc(-c4ccccc4)c4c(c3C2)CO[C@@H](C)C4)cc1
45µM*	0.0	CC1C(=O)C(=O)C=CN1C (stereo unspecified)
-21%	-1.3	COc1ccc(Br)cc1C1C2C=CCCC2(C)C(=O)N1Cc1ccccc1 (stereo unspecified)
6%	0.4[11.7 µM]	C=C1C=C(Br)C2(OCCCO2)[C@H]2OC12 (stereo partly specified)
-23%	-2.2	O=[N+]([O-])c1cccc2c[nH]nc12
?	?	Cc1[nH]c(/C=C2/C(=O)Nc3ccc(S(=O)(=O)Cc4c(Cl)cccc4Cl)cc32)c(C)c1C(=O)N1CCCC1CN1CCCC1 (stereo unspecified)
-6%	5.3	COc1ccccc1CN1CC2(CCN(C(=O)c3ccncc3)CC2)C1
4%	-3.3	Cn1cccc1C(=O)N1CCC2(CC1)CCN(c1ccccc1)CC2
?	0.7[11.7 µM]	COc1ccc(-c2nc3c(c4c2C[C@H](c2ccccc2)OC4)CN(S(=O)(=O)c2ccc(Cl)c4nonc24)CC3)c(C)c1
4%	3.1[24.8 µM]	COc1ccc2c(c1)N(C[C@@H](C)CN(C)C)c1ccccc1S2
9%	-0.2[11.7 µM]	C#CCCCO/N=C1/[C@H]2O[C@@H]2[C@@H](O)[C@H]2[C@H]1CCn1c(=O)n(-c3ccccc3)c(=O)n12
8%	-2.3[11.7 µM]	CC12C=C(/C=C/c3ccccc3)C(C)(C1)C(c1ccccc1)CC2=O (stereo unspecified)

(list continues)
Sfp inh	Menin MLL FP FL	SMILES
-22%	7.6	COc1ccc(-n2c(=O)c(-c3ccc(Cl)cc3)nc3cnc(N4CCNCC4)nc32)cc1
-1%	-0.8	Cc1cnc(CNc2ncnc3ccc(-c4cccc(NS(C)(=O)=O)c4)cc23)cn1
4%	-2.1	CC(=O)N1CC=CC1(CC(C)C)C(=O)NCC1CC1 (stereo unspecified)
20%	-0.8	Cn1c(=O)oc2cc(S(=O)(=O)N3CCCC(C(=O)N4CC=C(c5ccccc5)CC4)C3)ccc21 (stereo unspecified)
-26%	9.9	CN1C(=O)CC2(C=CC(=O)C=C2OC(=O)c2ccccc2)c2ccccc21 (stereo unspecified)
6%	-0.7[11.7 µM]	CC1(OC(=O)c2ccc(Cl)nc2)C(=O)C=c2cc(-c3ccsc3)ncc2=C1OC(=O)C1CCCC1 (stereo unspecified)
?	?	Cc1cc(C(=O)O)ccc1[C@H](N)C(=O)O
-23%	-4.0	COc1ccc2[nH]cc(CCNc3ncncc3-c3ccc(C(=O)N(C)C)cc3)c2c1
-11%	2.4	COC(=O)/C=C/c1cccc(N(Cc2ccc(-c3ccc(N(C)C)cc3)cc2)C(=O)C2CCCCC2)c1
50µM*	2.4	CN(C)C(=O)c1ccc(-c2cncnc2NCc2cccs2)cc1
4%	2.7[11.7 µM]	CC1C=CCCOC1c1ccccc1 (stereo unspecified)
19%	4.5	CCCC[C@@H]1C[C@H]1C(NC(=O)c1cccs1)c1ccc(-c2ccccc2)cc1 (stereo partly specified)

(further entries)
Sfp inh	Menin MLL FP FL	SMILES
20%	1.5	CCOc1ccccc1OCCN[C@H](C)Cc1ccc(OC)c(S(N)(=O)=O)c1
-10%	4.0	CCCCCCC(=O)N1C/C=C\C(c2ccc(OC)cc2)N(Cc2ccc(F)cc2)C(=O)C1Cc1ccccc1 (stereo unspecified)
11%	-3.3	COc1ncc2nc(-c3ccc(F)cc3)c(=O)n(-c3ccccc3)c2n1
-25%	?	FC(F)(F)c1cc(NC(=S)Nc2ccc3cc4ccccc4cc3c2)cc(C(F)(F)F)c1
-4%	2.6	NCCCCCN
24%	-29	CCNc1ncc2nc(-c3ccccc3)c(=O)n(CCC#N)c2n1
13%	-0.6[11.7 µM]	C#CCCCO/N=C1/C[C@@H](O)[C@@H](O)[C@@H]2[C@@H]3C(=O)N([C@@H](C)c4ccccc4)C(=O)[C@H]3CC[C@H]12
5%	?	CN(C)c1ncc2nc(-c3cc(F)cc(F)c3)c(=O)n(C)c2n1
5%	0.6[24.8 µM]	Cc1n[nH]c(=O)[nH]c1=O
2%	1.0	COC(=O)[C@@H]1OC(c2ccccc2)O[C@H]1C(=O)OC
-3%	-6.8	CC(C)CCCC(C)C1CCC2C3CC(=O)[C@H]4CC(O)CC[C@]4(C)C3CC[C@@]12C (stereo partly specified)
2%	2.2	C=CCCCCCCCCCCCC(O)CC(O)COC(C)=O (stereo unspecified)

Arranged by value in Sfp inh (largest number first): some entries from above
Sfp inh	Menin MLL FP FL	SMILES
24%	-29	CCNc1ncc2nc(-c3ccccc3)c(=O)n(CCC#N)c2n1
-3%	-6.8	CC(C)CCCC(C)C1CCC2C3CC(=O)[C@H]4CC(O)CC[C@]4(C)C3CC[C@@]12C (stereo partly specified)
-4%	2.6	NCCCCCN

Following part
Sfp inh	Menin MLL FP FL	SMILES
-2%	2.6[11.7 µM]	CC(=O)Nc1ccc(S(=O)(=O)N2CCc3nc(-c4ccccc4)c4c(c3C2)CO[C@@H](C)C4)cc1
?	1.1	CCCCC/C=C\C[C@H](O)/C=C/C=C\C/C=C\CCCC(=O)O
24%	-3.1	C[C@@H]1C(SC2Cn3cnc[n+]3C2)=C(C(=O)[O-])N2C(=O)[C@H]([C@@H](C)O)[C@@H]12 (stereo partly specified)
18%	-0.5[11.7 µM]	CCOC(=O)CCN1C(=O)[C@H]2[C@H]3[C@H](O)[C@H](O)C/C(=N/OCC(C)C)[C@@H]3CC[C@@H]2C1=O
?	-1.5	Cc1cccc(-c2nn(C(=S)Nc3ccccc3)cc2-c2ccnc3ccccc23)n1
?	-0.2	O=C(c1ccncc1)N1CCC[C@@]2(CCN(Cc3cc(C(F)(F)F)cc(C(F)(F)F)c3)C2)C1
?	1.9	Cc1noc(C)c1-c1ccc2ncnc(NCc3ccccc3)c2c1
8%	-2.6	C=CCCN(C(Cc1ccccc1)C(=O)OC)S(=O)(=O)c1cc(Br)ccc1Br (stereo unspecified)
50µM*	-5.4	CN1CCN(c2nc(-c3ccc(N(C)C)cc3)nc3ccccc23)CC1
17%	-0.8	c1ccc2[nH]ccc2c1
1%	0.8	Cc1nc(N2CCOCC2)c2nc(-c3ccccc3)n(CCN(C)C)c2n1
23%	-0.4	COC(=O)[C@H]1C[C@@H]1[C@H](NC(=O)Oc1ccc(F)cc1)c1ccccc1

Complete entries, quoted from the list.
C=CCCN(C(Cc1ccccc1)C(=O)OC)S(=O)(=O)c1cc(Br)ccc1Br (stereo unspecified) across the screens: Sfp inh: 8%; Menin MLL FP FL: -2.6
Cc1nc(N2CCOCC2)c2nc(-c3ccccc3)n(CCN(C)C)c2n1 across the screens: Sfp inh: 1%; Menin MLL FP FL: 0.8

Other compounds:
Sfp inh	Menin MLL FP FL	SMILES
6%	-1.2	CCC/C=C(\CCC)C(NP(=O)(c1ccccc1)c1ccccc1)c1ccc(-c2ccccc2)cc1 (stereo unspecified)
29%	?	COCCn1c(=O)c(-c2cccs2)nc2cnc(Nc3ccccc3)nc21
79µM*	?	Cc1sc(N)c(C(=O)c2cccc(C(F)(F)F)c2)c1C
-20%&10%	5.2&-9.1	Oc1ccc(Nc2nc(-c3ccc(Cl)cc3)cs2)cc1
-25%	2.4	O=C1CSC(=S)N1/N=C/c1ccc(Cl)c([N+](=O)[O-])c1
-17%	-0.9	CCNc1ncc2ncc(=O)n(Cc3cccc(OC)c3)c2n1
-9%	1.4	CCCC1OC2CC3C4CCC5=CC(=O)C=CC5(C)C4C(O)CC3(C)C2(C(=O)CO)O1 (stereo unspecified)
20µM*	?	CNC(=O)c1c(N)sc2c1CCCCC2
?	-2.6[24.8 µM]	CC[C@H](CO)NCCN[C@@H](CC)CO
?	?	COc1cccc(Cn2c(=O)c(-c3ccccc3)nc3cnc(N(C)C)nc32)c1
-13%	?	N#CCCn1c(=O)c(-c2cccs2)nc2cnc(Nc3ccccc3)nc21
4%	2.7	Nc1nc2[nH]c(=O)[nH]c2c(=O)[nH]1

(more compounds)
Sfp inh	Menin MLL FP FL	SMILES
14%	-0.1[24.8 µM]	CN(C)CCCO[C@H]1[C@@H]2OC(C)(C)O[C@@H]2O[C@@H]1[C@H](O)CO
12%	5.1	COCCn1c(=O)c(-c2cn(C)c3ccccc23)nc2cnc(OCc3ccccc3)nc21
11%	-2.8	COCC(=O)N1CCC2(CCCN(c3ncccn3)C2)CC1
28µM*	6.5	CNc1ncnc2c1ncn2[C@H]1C[C@H](OP(=O)(O)O)[C@H](COP(=O)(O)O)O1
9%&7%	2.8	CCCCCCCCCCCCCCCC(=O)OCC(COP(=O)(O)O)OC(=O)CCCCCCCCCCCCCCC (stereo unspecified)
8%	-1.4	Cc1noc(C)c1C(=O)N1CCC2(CCN(Cc3cc(C(F)(F)F)cc(C(F)(F)F)c3)CC2)CC1
8%	-2.9	Cc1nn(-c2ccccc2)c(NC(=O)NS(=O)(=O)c2ccc(Cl)cc2)c1C#N
?	?	O=c1c(O)c(-c2ccc(O)cc2)oc2cc(O)ccc12
-19%	1.2	O=C(/C=C/c1ccc(O)c(O)c1)O[C@H]1C[C@@](O)(C(=O)O)CC(O)C1O (stereo partly specified)
6%	2.9	COC(=O)[C@H]1C[C@@H]1[C@H](NC(C)=O)c1ccccc1
19%	-2.5	O=C(N[C@@H](Cc1ccccc1)C(=O)O)c1ccccc1
-3%	?	COc1cccc(Cn2c(=O)c(-c3ccc(F)cc3)nc3cnc(N4CCOCC4)nc32)c1

The closing 3 records of the section before open the next one:
Sfp inh	Menin MLL FP FL	SMILES
6%	2.9	COC(=O)[C@H]1C[C@@H]1[C@H](NC(C)=O)c1ccccc1
19%	-2.5	O=C(N[C@@H](Cc1ccccc1)C(=O)O)c1ccccc1
-3%	?	COc1cccc(Cn2c(=O)c(-c3ccc(F)cc3)nc3cnc(N4CCOCC4)nc32)c1
-22%	-2.6	COc1cccc(-c2cc(NCc3cnc(C)cn3)ncn2)c1
18%	-2.3	CCCC[C@@H]1C[C@H]1C(NC(=O)Cc1ccccc1)c1ccc(-c2ccccc2)cc1 (stereo partly specified)
1%	-1.2	COC(=O)[C@@]1(Cc2ccc(OC)cc2)[C@H]2c3cc(C(=O)N4CCCC4)n(CCc4ccc(O)c(OC)c4)c3C[C@H]2CN1C(=O)c1ccccc1
7%	-5.5	CC[C@H](C)[C@@H]1NC(=O)[C@H](Cc2ccc(O)cc2)NC(=O)[C@@H](N)CSSC[C@@H](C(=O)N2CCC[C@H]2C(=O)N[C@@H](CC(C)C)C(=O)NCC(N)=O)NC(=O)[C@H](CC(N)=O)NC(=O)[C@H](CCC(N)=O)NC1=O
8%	-1.2	COCCn1c(=O)c(CCc2ccccc2)nc2cnc(OC)nc21
-21%	-3.1	CC1(C)C(C(=O)O)N2C(=O)CC2S1(=O)=O (stereo unspecified)
-8%	-4.2[24.8 µM]	Clc1ccc([C@H](Cn2ccnc2)OCc2csc3c(Cl)cccc23)c(Cl)c1
20%	-0.3	COc1ccc(Oc2ncc3nc(-c4ccc(OC)cc4)c(=O)n(CCC#N)c3n2)cc1
24%	0.2[11.7 µM]	CC(C)=CCC/C(C)=C/CO/N=C1/C[C@@H](O)[C@@H](O)[C@@H]2[C@H]3C(=O)N(c4ccc(F)cc4F)C(=O)[C@@H]3CC[C@@H]12
20%	2.5	O=S(=O)(c1ccccc1)N1CCC[C@@]2(CCN(c3ncccn3)C2)C1
3%	-4.8	CN1CCN(c2ncc3nc(-c4cccc(C#N)c4)c(=O)n(C[C@H]4CCCO4)c3n2)CC1
2%	0.7[138 µM]	Cc1ccccc1-c1ccc(C(=O)O)s1

In the list so far, two have a nitro group on carbon:
Sfp inh	Menin MLL FP FL	SMILES
-23%	-2.2	O=[N+]([O-])c1cccc2c[nH]nc12
-25%	2.4	O=C1CSC(=S)N1/N=C/c1ccc(Cl)c([N+](=O)[O-])c1

Continuation.
Sfp inh	Menin MLL FP FL	SMILES
11%	2.7	COCCn1c(=O)c(-c2ccc(OC)cc2)nc2cnc(OC)nc21
13%&-2%	-2.6	CCCCC/C=C\C/C=C\C/C=C\C=C\C(=O)CCCC(=O)O
7%	?	O=c1c(-c2ccccc2)nc2cnc(N3CCOCC3)nc2n1Cc1ccc(F)cc1
0%	-1.5	O=c1c(-c2ccc(Cl)cc2)nc2cnc(Oc3ccccc3)nc2n1C1CC1
-73%	1.4	COCCn1c(=O)c(-c2ccccc2)nc2cnc(Oc3ccccc3)nc21
?	2.6	CC1CC=CC2C1C(=O)N(Cc1ccccc1)C2c1ccc2ccccc2c1Br (stereo unspecified)
18%	6.2	Cc1ccccc1-c1cc(NCCN2CCOCC2)ncn1
?	-3.6	COc1ccccc1-c1nc(N2CCN(C)CC2)c2ccccc2n1
20%	-0.6	OC1c2ccccc2N=C2CCCN21 (stereo unspecified)
28%	0.4	CS(=O)(=O)N1CCC[C@@]2(CCN(c3ccccn3)C2)C1
-22%	-4.9	CN(CC[C@@H](Oc1ccc(-c2ccccc2)cc1)c1ccc(F)cc1)CC(=O)O
?	-0.1	COc1ccc(C=C2c3ccccc3C(=O)c3ccccc32)cc1O

Further structures follow:
Sfp inh	Menin MLL FP FL	SMILES
0%	-0.3	COc1ccc(NC(=O)N2CCCC3(CCN(C(=O)c4cccc(F)c4)CC3)C2)cc1
12%	-8.6	N[C@@H](C(=O)O)c1ccc(C(=O)O)c(O)c1
-14%	2.0	C=C(C)C(=O)OC[C@@H]1CCC[N@+]2(C)CCCCC12 (stereo partly specified)
4%	-5.6	CN(C)C(=O)c1ccc(-c2nc(N(C)C)c3ccccc3n2)cc1
28%	-2.2	CC(C)CN1CCC2(CC1)CCN(C(=O)c1cccc(F)c1)CC2
20%	-1.1	CC(C)NC(=O)N1CCCC2(CCN(C(=O)c3csnn3)CC2)C1
